Assay outcomes as filed in PubChem.
eIF4H inh = inhibitors of RNA binding by human eIF4H; 0.94% of 290,000 active; Q15056; inhibition, % at 35 µM; eIF4H fluorescence polarization binding assay;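 active means 50% or more with normal probe brightness, or confirmed in later tests; inconclusive means above 50% with abnormal brightness, or retests that disagree; inactive means below 50% or failed in later tests; about a fifth of its hits are not listed in these tables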;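 further: calls also rest on retests at 20 µM and on dose response follow-up; 0% = protein and probe with vehicle and 100% = probe without protein; strong numbers were not always called active; many hits fall short of the cut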
Yeast UUG start = alters start codon recognition fidelity in yeast; S. cerevisiae UUG-firefly luciferase reporter, luminescence/redox ratio; activity score, % at 18.7 µM; 0.13% of 350,000 active; AID 602363;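 active means replicate mean at a twofold rise or more, about +100% in these data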;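 further: firefly luciferase made from a UUG start codon reports start codon fidelity; reporter light over untreated wells divided by growth signal over untreated wells; some hits fall short of that in this replicate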
CSC inhib = cancer stem cell inhibition; cancer stem cell-like cells viability, luminescence; inhibition, % at 7.5 µM; 1.1% of 300,000 active; AID 2717;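 active means mean at 75% or more and at least half the replicates too; inconclusive means mean and replicates disagree; tested in HMLE shEcad cells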;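 further: 0% = median of negative and 100% = median of positive control wells; the first replicate is given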
Rce1 inh = inhibitors of yeast Ras-converting enzyme; Q03530; yeast membranes, quenched prenylated peptide cleavage fluorescence; calls only; 0.27% of 290,000 active;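 active means fall in fluorescence gain of 50% or more versus controls, with final raw signal at or below 3038400; inconclusive means same 50% fall but final raw signal above 3038400; inactive means fall in fluorescence gain under 50%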;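 further: plate controls were neutral control wells for no effect and wells lacking membranes for full effect; tested at 10 µM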
Target sequence (Q03530 whole entry, looked up): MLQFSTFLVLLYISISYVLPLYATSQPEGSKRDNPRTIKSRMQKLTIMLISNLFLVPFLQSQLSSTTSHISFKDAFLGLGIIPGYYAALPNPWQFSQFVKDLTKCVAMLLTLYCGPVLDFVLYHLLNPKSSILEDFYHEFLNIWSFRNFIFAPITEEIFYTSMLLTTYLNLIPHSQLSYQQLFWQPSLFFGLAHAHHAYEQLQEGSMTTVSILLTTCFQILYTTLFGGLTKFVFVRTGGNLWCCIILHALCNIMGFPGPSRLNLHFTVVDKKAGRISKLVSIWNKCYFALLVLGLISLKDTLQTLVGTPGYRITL
Env fusion inh = inhibitors of HIV Env-mediated cell fusion | inhibition, % at 12.3 µM | HeLa-JRFL Env/CEM21 cell fusion, luciferase | AID 651610 | 1.1% of 360,000 active;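 active means mean replicate inhibition score of at least 50 and every replicate individually at or above 50; inconclusive means only one of the two criteria met; inactive means mean below 50 and not all replicates reaching 50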;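 further: 0% = plate neutral controls and 100% = maraviroc near 300 nM; one replicate is shown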
MT1-MMP act inh = inhibitors of human MT1-MMP activation | GFP/RFP ratio change, % at 20 µM | 0.061% of 360,000 active | P50281 | AID 651647 | HT1080 RFP-PRO-GFP cells, GFP/RFP ratio fluorescence, overnight; percent of plate control window, DMSO zero;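 active means GFP/RFP ratio change of at least 30% with cell ATP level not reduced by more than half and red fluorescence within 50% of control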; further: strong numbers were not always called active
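Assay system: HT1080 RFP-PRO-GFP cells. Benchmarks: DMSO vehicle wells and RFP-L50D-GFP reporter cell wells. Times: overnight cell settling, then overnight compound exposure, 37 °C, 5% CO2. Compound: 20 µM single dose, 1% DMSO. Read-out basis: GFP/RFP fluorescence ratio.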
PABP FP inh = PABP-poly(A) binding inhibition; P11940; PABP-poly(A) RNA binding, fluorescence polarization; inhibition, % at 35 µM; 1% of 290,000 active;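 active means 50% or more with normal probe brightness, or confirmed in later tests; inconclusive means above 50% with abnormal brightness, or retests that disagree; inactive means below 50% or failed in later tests; about a fifth of its hits are not listed in these tables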;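 further: calls also rest on retests at 20 µM and on dose response follow-up; controls were probe without protein and protein plus probe with vehicle; some compounds called inactive have numbers as strong as hits; many hits fall short of the cut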
Target sequence (P11940 whole entry, looked up): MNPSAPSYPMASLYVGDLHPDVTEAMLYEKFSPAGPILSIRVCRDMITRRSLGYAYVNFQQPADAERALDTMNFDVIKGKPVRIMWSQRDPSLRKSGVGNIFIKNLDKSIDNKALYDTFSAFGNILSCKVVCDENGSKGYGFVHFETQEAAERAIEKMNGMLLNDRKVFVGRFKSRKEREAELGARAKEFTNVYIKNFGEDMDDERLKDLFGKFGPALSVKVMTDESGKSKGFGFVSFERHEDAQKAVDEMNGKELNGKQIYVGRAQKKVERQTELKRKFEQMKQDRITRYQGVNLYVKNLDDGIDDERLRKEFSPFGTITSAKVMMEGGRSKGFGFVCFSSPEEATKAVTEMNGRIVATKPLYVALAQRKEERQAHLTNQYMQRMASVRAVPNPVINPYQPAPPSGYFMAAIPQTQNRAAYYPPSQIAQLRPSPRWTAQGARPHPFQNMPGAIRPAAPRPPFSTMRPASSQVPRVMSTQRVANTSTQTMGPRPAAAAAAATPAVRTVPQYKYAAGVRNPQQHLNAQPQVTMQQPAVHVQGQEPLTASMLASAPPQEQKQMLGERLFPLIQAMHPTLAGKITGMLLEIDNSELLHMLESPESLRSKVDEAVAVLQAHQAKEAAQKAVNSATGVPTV
MT1-MMP act inh RFP = recorded beside MT1-MMP act inh, whose call it bears; RFP signal change, %; measured here: RFP expression control read;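 0 = vehicle wells; hits needed this value within 50% of zero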
Numbers without * were called inactive; i = inactive; u = inconclusive; x = no result given; & = joins results of further samples; [ ] = remark or other dose.

SMILES	eIF4H inh	Yeast UUG start	CSC inhib	Rce1 inh	Env fusion inh	MT1-MMP act inh	MT1-MMP act inh RFP	PABP FP inh
COc1ccc(OC)c(/C=C2\N=C(c3ccccc3)OC2=O)c1	u	1.8	4.2	i	0.2	-2.6	2.8	u
O=C(O)C1CCN(C(=O)CCc2ccccc2)CC1	-5.9	x	-6.5	i	-8.3	1.4	5.1	10.7
CCNc1nc(NCC)nc(N/N=C/c2ccc(Br)cc2)n1	2.5	x	-7.0	i	18.7	8.3	-5.2	31.5
CCCCN(C)CCCNC(=O)/C=C1\Sc2ccccc2NC1=O	-27.1	1.1	-1.0	x	18.2	-1.2	4.6	-5.8
O=C(c1ccc(S(=O)(=O)N2CCOCC2)cc1)N1CCN=C1SCc1cccnc1	-12.7	-26.1	-18.1	i	41.5	7.9	2.4	-12.8
Cc1cc(C)c2c(=O)n(CC(=O)Nc3ccc(Br)c(C)c3)sc2n1	-0.9	x	-1.9	x	-10.3	5.2	-1.6	-6.6
O=C(OCC(=O)c1c[nH]c2ccccc12)c1cccc(S(=O)(=O)N2CCCCCC2)c1	-11.1	1.5	6.2	i	x	-0.5	-8.3	-24.9
COc1ccccc1CNC(=O)CCS(=O)(=O)c1cccs1	-17.2	-17.1	2.8	i	-43.5	0.1	-2.5	-0.5
CCOC(=O)c1ccc(NC(=O)c2ncn3c2C(=O)N[C@H](C)C3)cc1	x	0.2	x	x	-1.5	5.6	2.0	x
CCCCCCCCNS(=O)(=O)CCNCc1ccc(OC)cc1	x	-17.4	x	x	-6.0	0.3	4.6	x
CCN(CC(=O)N1CCOCC1)S(=O)(=O)c1ccc(F)cc1	1.0	-15.7	-4.2	i	-0.5	-7.7	-0.4	1.5
CCn1ccnc1CN(C)Cc1cn[nH]c1-c1ccc(OC)c(F)c1	-4.7	-22.1	4.0	i	18.3	-15.5	-8.9	0.6
CCn1c(SCC(=O)OCc2ccccc2)nc2c1c(=O)n(C)c(=O)n2C	0.5	-2.5	3.2	i	-54.1	-3.5	-0.1	-6.0
O/C(=C\c1nc2ccccc2[nH]1)c1cccs1	u	-28.4	x	i	-34.6	-9.6	1.1	u
Cc1cc(N2CCC(C)CC2)nc(SCC(=O)c2ccccc2)n1	-1.9	-13.6	0.8	i	-10.9	-8.1	-12.8	-4.0
CC(C)(C)C(=O)Nc1ccc(N=Nc2ccccc2)cc1	7.1	-51.1	34.2	i	-134.5	9.1	-5.2	-0.5
COC(=O)c1c(NC(=O)CN2CCC3(O)CCCCC3C2c2ccc(F)cc2)sc(C)c1C (stereo not given)	8.5	-10.8	46.1	i	-15.3	-2.5	-4.9	2.0
O=C(NO)c1ccccc1O	-3.6	-1.0	13.5	i	x	4.7	5.1	-2.5
Cc1ccc(OCC(=O)N2CCN(c3nnc(-c4ccc(C)cc4)c4ccccc34)CC2)cc1	-7.2	7.3	x	i	0.2	-5.3	-14.4	-9.1
NC(=S)c1ccc(OCCCc2ccccc2)cc1	x	12.0	x	x	70.3*	-0.6	-4.3	x
O=C(NC(=S)Nc1ccc2oc(-c3cccnc3)nc2c1)c1cccc(Cl)c1	-11.7	-11.9	16.0	i	x	-0.3	-1.5	-9.7
COc1ccc(NC(=O)C2CCCN(c3ncccn3)C2)cc1 (stereo not given)	2.5	-11.2	-8.5	i	-12.9	-1.4	1.6	5.2
Cc1nc(-c2cccs2)sc1C(=O)O	-14.3	-4.5	-17.6	i	-0.9	-4.2	2.6	2.3
O=C(O)CCN1C(=O)S/C(=C\c2cccnc2)C1=O	-3.1	x	-6.3	i	-9.6	2.8	5.6	-10.3
O=C(CC(=O)NN=C1CCCC1)NCCc1ccccc1	-9.0	14.5	-7.6	i	-18.9	7.5	5.8	-5.7
O=C(CNc1cc(S(=O)(=O)N2CCOCC2)ccc1NCC1CCCO1)Nc1cccc(F)c1 (stereo not given)	2.0	-5.1	x	i	-20.3	3.3	1.9	-3.1
CCN(CC(=O)Nc1cccc(S(=O)(=O)N(C)c2ccccc2)c1)Cc1cccs1	x	-6.4	x	x	23.0	5.0	-8.1	x
COc1ccccc1N1C(=O)c2ccccc2NC1C(OC)OC (stereo not given)	-16.1	-11.1	-7.7	i	-38.6	2.7	3.8	25.5
O=C(NCc1ccco1)C1CCCN1C(=O)Nc1ccccc1 (stereo not given)	5.5	x	3.9	i	-15.5	2.7	6.5	12.7
C[C@H]1CN([C@@H](C)CO)C(=O)Cc2cc(NC(=O)C3CC3)ccc2O[C@H]1CN(C)Cc1ccc(Oc2ccccc2)cc1	x	9.0&9.4	69.6	x	-62.7[16.7 µM]	2.8	-2.4	x
CC(C)c1ccc(NC(=O)C2CCCN(S(=O)(=O)c3cccnc3)C2)cc1 (stereo not given)	-10.2	-5.4	-3.6	i	-0.9	3.4	-5.9	3.2
Cn1c(=O)c(-c2ccccc2)nn2c3ccccc3nc12	-8.9	-8.6	-13.4	i	x	-7.5	-6.8	-2.0
CN(C)CCCN(Cc1ccccc1)C(=S)Nc1cccc(C(F)(F)F)c1	0.1	-5.0	-14.7	i	-5.1	-4.1	-2.4	-15.7
O=C(Nc1ccccc1)Nc1nnc(Cc2ccccc2F)s1	-7.4	-9.6	34.8	i	5.3	3.7	-3.5	6.8
COc1ccc(NC(=O)CSc2nnc(-c3ccccc3F)n2C2CC2)cc1S(N)(=O)=O	-1.8	x	-3.9	i	6.1	0.5	-2.5	8.4
COc1ccc2[nH]c3c(=O)n(CCCC(=O)NC4CCC(C)CC4)c(=S)[nH]c3c2c1 (stereo not given)	3.5	-8.4	-7.7	i	3.1	-2.4	1.3	1.4
COc1ccc(C(CNC(=O)Cc2ccccc2Cl)N2CCCCC2)cc1 (stereo not given)	-2.8	-28.7	0.6	i	-4.1	-4.8	-5.9	4.8
O=S1(=O)[C@H]2C[C@H](CO)O[C@@]2(CO)CN1Cc1ccc(-c2ccc(F)cc2)cc1	x	5.2	x	x	36.2	-1.1	-16.8	x
COc1ccccc1OCCSc1nc2ccccc2n1CC(N)=O	-12.5	-1.8	-8.4	i	4.7	18.2	9.0	-6.6
CC(=O)c1ccc(NC(=S)NC(=O)/C=C/c2ccccc2)cc1	13.6	-11.2	-16.0	i	-1.9	0.6	3.1	-7.4
O=C(Nc1nnc(-c2ccco2)o1)c1ccc(Cl)s1	-1.6	-33.4	1.6	i	-5.3	5.6	2.8	4.3
O=C(Nc1nccs1)c1cnccn1	10.0	-15.4	8.8	i	-38.4	2.1	0.9	14.3
CCc1sc(C(=O)Nc2cccnc2)cc1Br	11.2	-15.1	-3.0	i	-191.7	2.5	-2.9	-2.0
CCOC(=O)N1CCN(C(=O)CN(c2ccc(OC)c(OC)c2)S(C)(=O)=O)CC1	-4.8	5.3	9.6	i	-48.9	-1.1	2.7	1.6
O=C(CCN1CCN(c2ccccc2F)CC1)Nc1ccccc1Cl	-10.3	-3.4	-7.3	i	-1.0	-4.7	0.0	12.7
COc1ccc(-c2csc3ncnc(N4CCN(S(=O)(=O)c5cccc(C(F)(F)F)c5)CC4)c23)cc1	x	x	11.1	i	19.1	-0.4	-5.4	x
O=C(Cc1ccccc1)Nc1cc(C(=O)c2ccccc2)ccc1N1CCOCC1	-9.6	-5.5	55.0	i	-53.4	-0.3	-3.8	0.8
CC(=O)Nc1ccc(S(=O)(=O)N2CCC(C(=O)NCCC(=O)NCc3ccncc3)CC2)cc1	-16.1	-15.5	-5.2	i	5.6	0.9	2.5	-0.4
O=C(C1CCN(S(=O)(=O)c2ccccc2)CC1)N1CCOCC1	-6.9	-25.0	-5.0	i	x	5.1	3.3	-4.2
CCN(CC)CCSc1nc(O)c(-c2ccccc2)c(=O)n1-c1ccccc1	5.4	2.9	-10.4	i	-17.1	-2.2	-3.7	-9.8
O=C(C[C@H]1C(=O)N(c2ccc(Br)cc2)C[C@@H]1Cc1ccccc1)Nc1ccccc1	x	-3.6	x	x	-51.0	-0.2	-4.0	x
COC(=O)c1cccc(N2C(=O)C3C4C=CC(CC4)C3C2=O)c1 (stereo not given)	-0.4	-12.3	-4.3	i	14.9	-1.1	1.8	-3.2
COc1ccc(C(C)(C)NC(=O)C2CCC(=O)N(C3CC3)C2)cc1OC (stereo not given)	-6.9	-26.7	14.5	i	x	1.0	4.3	-6.4
O=S(=O)(NCc1ccc2c(c1)OCO2)c1ccc(F)cc1	-4.9	-15.7	-13.1	i	-39.1	3.1	2.6	-2.9
COc1ccc(OC)c(NC(=O)c2cccc3c2C(=O)N(C2CCCCC2)C3)c1	-7.3	-2.2	-14.0	i	6.5	-2.6	-3.2	0.9
Cc1cccc(CN2C(=O)c3ccccc3Sc3ccc(C(=O)NCCN4CCOCC4)cc32)c1	-9.9	x	16.1	i	0.5	0.6	-0.7	45.9
O=C(CSC1=NCCS1)N1N=C(c2cccs2)CC1c1ccc(F)cc1 (stereo not given)	x	2.5	x	x	-12.6	-0.1	-5.7	x
O=C(CCCn1c(=S)[nH]c2ccccc2c1=O)NC1CCCCC1	-9.0	-10.1	-5.0	i	-35.9	5.9	4.2	-2.3
NC1=NC(=O)CC(C(=O)NCCc2ccccc2)S1 (stereo not given)	3.6	-3.5	-13.0	i	-4.8	4.8	9.7	-0.8
CC(=O)Nc1ccc(NC(=O)C(C)OC(=O)CCSc2ccccc2Cl)cc1 (stereo not given)	x	-5.1	-13.2	x	30.9	-1.2	2.9	x

A different layout for part of the listing above.
| SMILES | eIF4H inh | Yeast UUG start | CSC inhib | Rce1 inh | Env fusion inh | MT1-MMP act inh | MT1-MMP act inh RFP | PABP FP inh |
| --- | --- | --- | --- | --- | --- | --- | --- | --- |
| CCOC(=O)N1CCN(C(=O)CN(c2ccc(OC)c(OC)c2)S(C)(=O)=O)CC1 | -4.8 | 5.3 | 9.6 | i | -48.9 | -1.1 | 2.7 | 1.6 |
| O=C(CCN1CCN(c2ccccc2F)CC1)Nc1ccccc1Cl | -10.3 | -3.4 | -7.3 | i | -1.0 | -4.7 | 0.0 | 12.7 |
| CCc1sc(C(=O)Nc2cccnc2)cc1Br | 11.2 | -15.1 | -3.0 | i | -191.7 | 2.5 | -2.9 | -2.0 |
| O=C(Cc1ccccc1)Nc1cc(C(=O)c2ccccc2)ccc1N1CCOCC1 | -9.6 | -5.5 | 55.0 | i | -53.4 | -0.3 | -3.8 | 0.8 |

Continued:
SMILES	eIF4H inh	Yeast UUG start	CSC inhib	Rce1 inh	Env fusion inh	MT1-MMP act inh	MT1-MMP act inh RFP	PABP FP inh
COC(=O)CC1C(=O)NCCN1C(=O)NC1CCCCC1 (stereo not given)	-0.1	-17.1	-2.2	i	16.6	-3.9	-3.8	-0.8
Cc1ccc(OCCN2CCCC2)cc1	0.5	-8.9	-5.0	i	7.8	1.5	2.0	-7.2
O=C1C2C3C=CC(CC3)C2C(=O)N1c1ccccc1F (stereo not given)	-1.8	-3.7	-17.4	i	1.3	1.4	2.0	-3.6
COc1cccc(C(=O)Nc2c3c(nn2-c2ccccc2C)CS(=O)C3)c1OC (stereo not given)	8.5	-17.7	-4.5	i	x	-1.8	1.9	-4.4
CC(C)(C)OC(=O)N1Cc2ccccc2C[C@H]1C(=O)O	-6.2	-17.5	5.9	i	x	3.9	5.0	2.6
CC(=O)c1cccc(NC(=O)CN2C(=O)NC(C)(C)C2=O)c1	x	-3.8	-26.1	x	0.9	1.8	3.7	x
CCc1ccc(C(O)c2ncc(-c3ccccc3Cl)[nH]2)cc1 (stereo not given)	x	-19.7	x	x	-20.0	8.1	-5.8	x
O=C(NCCCN1CCOCC1)c1cccc(S(=O)(=O)N2CCN(c3ccccc3)CC2)c1	x	x	-11.3	i	-9.4	1.6	4.4	x
CCC(C)c1ccc(NC(=S)Nc2ccc(OC)cc2)cc1 (stereo not given)	-8.4	-8.5	-3.3	i	-5.3	11.1	2.6	5.6
